Compound activity as filed in PubChem BioAssay.
RE007 growth inh: less growth of the S. pombe RE007 Vpr strain; S. pombe RE007 Vpr strain, BacTiter-Glo ATP luminescence, 24 h; control for the full effect not named in the record; Potency, µM (series often up to 92.2 µM), for the others: top-dose activity change, negative = less growth; actives 0.21% (n = 360,000); AID 651644; active = well fitted falling curve with a large enough effect; inconclusive = small, poorly fitted or top-dose-only effect; inactive = no such curve, though single readings can be large or run the other way;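 also: nearly all actives have a fitted effect of over 50% in size; the assay follows cell death caused by Vpr and the record does not say whether a fall means rescue or toxicity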
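Fission yeast RE007 carrying one integrated HIV-1 vpr copy, seeded at OD 0.01 in PMG+AL medium with 23 nL pinned compound. Grown 24 h at 30 degrees; viability read by BacTiter-Glo luminescence after 5 min.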
2A StopGo: lowers the luciferase signal of an FMDV 2A StopGo reporter. human cells with a luciferase reporter of 2A StopGo recoding; control for the full effect not named in the record. Potency, µM (top dose mostly 57.9 µM), for the others: at the highest dose signal change, negative = less light. actives 1.2% (n = 410,000); active = well fitted falling curve with a large enough effect; inconclusive = small, poorly fitted or top-dose-only effect; inactive = no such curve, though single readings can be large or run the other way; tested in HEK293T cells; also: nearly all actives have a fitted effect of over 45% in size; luciferase light after 4 h
* hit, by the source's call; ? = inconclusive; [ ] = remark or other dose. % is scaled to controls: 0 for no effect and ±100 for the full control effect; potency is read from the fitted curve at half-maximal effect.

A first look:
SMILES	RE007 growth inh	2A StopGo
O=C1c2ccccc2S(=O)(=O)c2cc(N3CCN(c4ccccc4)CC3)ccc21	13.4%	?
Cc1ccccc1S(=O)(=O)N1C[C@@H]2C(C(=O)C[C@@H]3C(=O)N(C)C(=O)[C@@H]32)[C@@H]1c1ccc(Cl)cc1 (some centres not stated)	-10.3%	-24.4%

Results, repeating the preview:
SMILES	RE007 growth inh	2A StopGo
O=C1c2ccccc2S(=O)(=O)c2cc(N3CCN(c4ccccc4)CC3)ccc21	13.4%	?
Cc1ccccc1S(=O)(=O)N1C[C@@H]2C(C(=O)C[C@@H]3C(=O)N(C)C(=O)[C@@H]32)[C@@H]1c1ccc(Cl)cc1 (some centres not stated)	-10.3%	-24.4%
O=C1Nc2ccccc2Cc2ccccc21	-14.7%	20.2%
Sc1ccccc1N=Cc1cccs1	-15.9%	21.8%
CC(=O)Nc1cccc(-c2csc(C(C)(O)c3ccccc3)n2)c1 (configuration not stated)	11.3%	-4.9%
C[C@H]1CN([C@@H](C)CO)C(=O)c2cc(Br)cnc2O[C@@H]1CN(C)C(=O)CN(C)C	8.1%	-8.9%
COCCN1C[C@@H](CO)O[C@@H](n2cnc3c(NCCCO)ncnc32)C1	-9.0%	-5.6%
O=C(NCc1ccccc1)c1onc(CSc2ccncc2)c1C(=O)NCc1ccccc1	2.8%	-25.5%
CCOC(=O)[C@@H]1[C@H]2COc3ccccc3[C@@H]2N2C(=O)N(c3cccc(F)c3)C(=O)[C@]12C	3.6%	9.0%
CC(C)C[C@H]1CN(CCCC[C@@H]2CNC(=O)C(=O)N2CCc2ccccc2)C(=O)C(=O)N1Cc1ccccc1	-15.7%	27.6%
O=C(CCN1C(=O)/C(=C\c2ccccc2F)SC1=S)N1CCOCC1	20.9%	-18.6%
CC(C)(C)C(=O)c1c(N)[nH]c(C(=O)c2ccccc2)c1-c1cc2ccccc2nc1Cl	44.9%	-10.1%
c1ccc(N2CCN(Cc3ccc4c(c3)OCO4)CC2)nc1	-13.7%	-11.7%
CCOc1ccc(C(=O)CN2C(=O)NC3(CCCc4ccccc43)C2=O)cc1 (configuration not stated)	11.3%	-9.3%
Cc1cccc(C(=O)Nc2ccc(C(=O)N/N=C/c3ccco3)cc2)c1	-9.7%	-29.3%

Quoted from the entries so far, 5 compounds:
SMILES	RE007 growth inh	2A StopGo
O=C(CCN1C(=O)/C(=C\c2ccccc2F)SC1=S)N1CCOCC1	20.9%	-18.6%
CC(C)(C)C(=O)c1c(N)[nH]c(C(=O)c2ccccc2)c1-c1cc2ccccc2nc1Cl	44.9%	-10.1%
c1ccc(N2CCN(Cc3ccc4c(c3)OCO4)CC2)nc1	-13.7%	-11.7%
CCOc1ccc(C(=O)CN2C(=O)NC3(CCCc4ccccc43)C2=O)cc1 (configuration not stated)	11.3%	-9.3%
Cc1cccc(C(=O)Nc2ccc(C(=O)N/N=C/c3ccco3)cc2)c1	-9.7%	-29.3%

Continuation.
SMILES	RE007 growth inh	2A StopGo
O=C(NCC1=C(c2ccc3ccccc3c2)C[C@@H]2CC[C@H]1N2Cc1ccco1)c1cccnc1	-1.1%	-15.9%
Cc1ccc(NC(=O)c2ncn(CCCNCc3ccc4c(c3)OCO4)n2)cc1C	-12.2%	-18.2%
COc1cc(NC(=O)CCNC(=O)N2CC(=O)Nc3ccccc32)cc(OC)c1OC	-2.8%	-23.1%
N#CCCN(Cc1ccccc1)C(CCc1ccccc1)C(=O)NC1CCCCC1 (configuration not stated)	-6.9%	9.4%
O=C(COC(=O)Cn1cnc2ccccc21)Nc1ccc(Br)cc1	-7.4%	-6.4%
C#CCNC(=O)C1=C[C@@H](c2ccccc2)C[C@@H](OCCCCO)O1	-16.0%	-6.7%
Cc1nc(SCC(=O)N2CCCC2=O)c2c(C)c(C)sc2n1	1.6%	28.6%
CCCS(=O)(=O)NC(=O)C1(C)CCCN(C(=O)c2sccc2C)C1 (configuration not stated)	6.2%	-19.0%
CN(C)c1ccc(CN2CCC(C(=O)NC(c3ccc(F)cc3)c3ccc4ccccc4n3)CC2)cc1 (configuration not stated)	-2.7%	-7.3%
C#Cc1ccc(NC(=O)C2(C)CCN2C(=O)CC(c2ccccc2)c2ccccc2)cc1 (configuration not stated)	14.3%	-19.6%
CC1(c2nnc(-c3ccccc3)o2)CC(c2ccccc2)=NO1 (configuration not stated)	3.6%	28.0%
CCOC(=O)c1csc(-c2csc(CCNC(=O)c3ccccc3)n2)n1	-7.4%	-12.1%
COC(=O)CCN1CCC2CC1c1cc(-c3cccc(C)c3)ccc12 (configuration not stated)	-17.7%	-33.3%
CC1(C(=O)NS(=O)(=O)c2ccccc2OC(F)(F)F)CCN1C(=O)c1ccccc1 (configuration not stated)	-1.6%	-3.0%
COc1ccc(OC)c(NC(=O)Nc2nc(C(N)C(C)C)cs2)c1 (configuration not stated)	2.2%	2.3%
CCOC(=O)[C@]12CCC=C1N(CCC1=CCCCC1)C(=O)[C@H](CC(=O)N1CCSCC1)C2	11.7%	-11.1%
Clc1cccc(-c2nc3ccc(Cl)cn3c2Cc2ccccc2)c1	-10.4%	13.8%
CCCCCCN1C[C@H](n2cc(COC(=O)c3ccccc3)nn2)[C@@H](O)C[C@@H]1c1ccc(C)cc1	-21.4%	?
FC(F)(F)Oc1ccccc1C(c1nnnn1-c1ccc2c(c1)OCCO2)N1CCN(C/C=C/c2ccccc2)CC1 (configuration not stated)	-1.2%	-10.1%
C[C@H](CO)N1C[C@H](C)[C@H](CN(C)C(=O)Nc2ccc(C(F)(F)F)cc2)Oc2ncc(-c3cccnc3)cc2C1=O	4.5%	-3.2%
Clc1ccc(-c2nc(-c3ccncc3)no2)c(Cl)c1	-1.1%	35.1%[activator]
O=C(NC1CCCC1)C(C1CC1)n1c(C2CC2)nc2ccccc21 (configuration not stated)	-10.9%	-5.6%
CC1(C(=O)NS(=O)(=O)c2cccs2)CCN1C(=O)C1(c2ccc(Cl)cc2)CC1 (configuration not stated)	7.4%[18.4 µM]	43.0%[activator]
O=S1(=O)CCOC[C@H](Cc2ccccc2)N1Cc1ccc(F)cc1	-7.3%	-15.3%
COc1cccc(/C=C/C(=O)NCC2CCCCC2)c1	-7.0%	41.9%[activator]
CC1(C(=O)NCC2CC2)CCN1C(=O)C/C=C/c1ccccc1 (configuration not stated)	-15.9%	-24.1%
CCCCn1c(O)c2n(c1=O)Cc1ccccc1N=C2c1ccccc1	7.5%	-10.9%
COC1=CC(=O)OC(c2ccccc2C(F)(F)F)C1 (configuration not stated)	11.4%	-15.5%
COc1cc(C(O)c2nc(-c3ccccc3)cs2)ccc1F (configuration not stated)	0.8%	?
FC(F)(F)C1=NNC(c2ccc3ccccc3c2)=NN1	-5.3%	12.2%
O=c1[nH]c2ccccc2n1C1CCN(Cc2ccc(-c3nc4ccc(F)cc4nc3-c3ccccc3)cc2)CC1	-22.9%	?
COCCN1C(=O)CSCC1(C)C(=O)NC(C)C (configuration not stated)	6.4%	-14.5%
NC(Cc1ccc(Cl)cc1)c1csc(Nc2nccc(C(F)(F)F)n2)n1 (configuration not stated)	5.6%[18.4 µM]	-18.9%
CCC(C)CCCCCCCCCCC(=O)O (configuration not stated)	10.4%	-1.2%
Clc1ccccc1Nc1nc(NCC2CC2)nc2ccsc12	-5.7%[18.4 µM]	-28.6%
CCOC(=O)c1ccc(NC(=O)c2nc[nH]c2C(=O)N[C@@H](C)CO)cc1	-17.8%	-18.7%
CC(C)CC1C(=O)N(Cc2cn(CC3CCCCC3)nn2)CCS(=O)(=O)N1Cc1ccc(-c2ccc(Cl)c(Cl)c2)cc1 (configuration not stated)	8.6%	-27.0%
C[C@@H]1CN([C@H](C)CO)C(=O)CCCn2cc(nn2)CO[C@H]1CN(C)C(=O)C1CCCCC1	-0.8%	-0.4%
C[C@H](CO)N1C[C@H](C)[C@@H](CN(C)CC2CC2)OCc2cnnn2CCCC1=O	-15.7%	-5.3%
CC1(C(=O)NS(=O)(=O)c2cccc(OC(F)F)c2)CCN1C(=O)c1cccc(F)c1 (configuration not stated)	2.3%	0.1%
CCN(CC)C(=O)C1=C(C)N(CCCOC)C(=O)C(CC(=O)NCCCN(C)C)C1 (configuration not stated)	5.3%	-4.2%
O=S(=O)(c1cccc(Br)c1)N1CCN(c2ncnc3scc(-c4ccccc4)c23)CC1	-8.9%	?
COc1ccc2cc(/C(C)=N/NC(=O)c3cc(C)oc3C)ccc2c1	-14.3%	-12.7%
NC(Cc1ccc(F)cc1)c1csc(Nc2ccc(C(=O)NCCCO)cn2)n1 (configuration not stated)	-2.9%	-20.0%
CCCCCCCN(c1ccccc1)[C@@H]1C[C@H]2CCCC(=O)N3CC[C@@H](C1)[C@@H]23	-15.6%	?
O=C(Nc1ccc(N2CCOCC2)cc1)c1csc([C@@H]2C[C@H](O)[C@@H](CO)O2)n1	7.3%[18.4 µM]	32.5%[activator]
COP(=O)(OC)OC(C(=O)c1ccccc1)c1ccc(Cl)cc1 (configuration not stated)	10.1%	-22.3%
O=c1ccn([C@@H]2O[C@H](CNCc3cccc4c3sc3ccccc34)[C@@H](O)[C@H]2O)c(=O)[nH]1	-9.7%	-7.7%
O=S1(=O)CC(N2CCC(Cc3ccccc3)CC2)CN1Cc1ccccc1 (configuration not stated)	-4.6%	-11.3%
COC(=O)C1=CN(c2ccc(F)cc2)C(N)=C(C#N)C1c1ccccc1 (configuration not stated)	-25.6%	-6.3%
O=[N+]([O-])c1cc([N+](=O)[O-])c(Oc2cccc3c2CCCC3)cc1NN1CCCCC1	9.9%	-7.1%
CC1(C(=O)NCc2ccccc2Br)CCN1Cc1ccc(-c2ccccc2)o1 (configuration not stated)	1.4%[18.4 µM]	?
CCCCOc1ccc(S(=O)(=O)NC(=O)C2(C)CCN2C(=O)c2c(C)noc2C)cc1 (configuration not stated)	-3.8%	-5.7%
O=C1NC[C@@H](CCCCN2C[C@H](Cc3ccccc3)N(CC3CCCCC3)C(=O)C2=O)N(Cc2ccccc2)C1=O	-14.8%	24.7%
CCCCN(C=O)c1c(CC)nc2c(OCc3ccc(Cl)cc3Cl)cccn12	19.6%	?
Cc1nn(CC(=O)NC2CC2)c(C)c1S(=O)(=O)N(C)C	7.2%	-10.4%
CC(=O)c1ccc(S(=O)(=O)NCCc2cn3ccc(C)cc3n2)cc1	-0.7%	-12.0%
CCOC(=O)C1=CCN(S(=O)(=O)c2ccc(C)cc2)C1c1ccccc1F (configuration not stated)	7.0%	-25.1%
CC(=O)Nc1ccc(-c2ccnc3c2CC(C)(C(=O)Nc2ccc(Cl)cc2)O3)cc1 (configuration not stated)	0.7%	-27.5%
Cc1noc(C)c1NC(=O)N(C)C[C@@H]1Oc2ncc(C#CC3CC3)cc2C(=O)N([C@@H](C)CO)C[C@@H]1C	-24.7%	-17.9%
(list continues)
SMILES	RE007 growth inh	2A StopGo
COc1ccc(NC2CCCN(C(=O)c3ccccc3-c3ncc[nH]3)C2)cc1 (configuration not stated)	1.6%	0.0%
CC(c1nc2ccccc2n1Cc1ccccc1)n1c(-c2cnccn2)nc2ccccc21 (configuration not stated)	-8.9%	-29.5%
CS(=O)(=O)c1ccc(C2=C(CNC(=O)c3cccnc3)[C@H]3CC[C@@H](C2)N3Cc2ccccc2)cc1	-0.2%	-3.5%
OCCN(Cc1ccccn1)Cc1ccccn1	9.2%	-12.6%
CS(=O)(=O)N1CCC2CC1c1cc(-c3ccccc3)ccc12 (configuration not stated)	4.3%	-28.0%
CNS(=O)(=O)c1ccc(CCC(=O)N2CCOCC2)cc1	-1.6%	-13.4%
CC1=C(C(=O)N2CCOCC2)CC(CC(=O)NCc2cccs2)C(=O)N1CCC1=CCCCC1 (configuration not stated)	-3.8%	-1.4%
CCCCCCCCN1[C@@H](CC(=O)O)c2ccc(C(F)(F)F)cc2S1(=O)=O	-2.3%	-1.6%
CC(=O)N1CCC(C(=O)N2c3ccccc3N=C(c3ccc4c(c3)OCO4)C2C(=O)NCc2ccccc2)CC1 (configuration not stated)	-9.7%	35.4%[activator]
CCOC(=O)c1c(C)cc2c(CO)n[nH]c(=O)c2c1C	10.4%	0.0%
O=C(Nc1cccc(Br)c1)C1CCCC1	-26.1%	7.3%
COc1ccc(CCN2C(=O)c3ccccc3C2c2nnnn2-c2c(C)cccc2C)cc1OC (configuration not stated)	-16.5%	-8.5%
CCCNC(=O)c1cc2c(c(-c3cccc(-c4ccc(F)cc4)c3)n1)[C@@H](CCO)N(S(=O)C(C)(C)C)C2 (some centres not stated)	0.8%	?
CCOC(=O)[C@]12CCC=C1N(Cc1cccc3ccccc13)C(=O)[C@H](CC(=O)NCc1ccc(C)o1)C2	3.8%	-18.2%
COc1ccc(C(O)c2ncc(-c3ccccc3Cl)[nH]2)cc1 (configuration not stated)	-8.0%	38.1%[activator]
CCOc1ccccc1OCCCC(=O)N1CCN(S(=O)(=O)c2ccccc2C#N)CC1	12.1%	-17.7%
Cc1ccc2c(c1)=N/C(=N\c1[nH]c(O)c3ccccc13)N=2	?	22.3%
O=C(CN1C(=O)c2ccccc2C1=O)C(O)CN1C(=O)c2ccccc2C1=O (configuration not stated)	-15.0%	0.0%
CCOC(=O)[C@]12CCCC=C1N(Cc1ccc3c(c1)OCO3)C(=O)[C@H](CC(=O)N1CCN(C(=O)c3ccco3)CC1)C2	0.7%	0.0%
Cc1ccc(NC(=O)COC(=O)c2ccco2)cc1S(=O)(=O)N1CCCCC1	14.0%	-18.6%
COc1cc(NCC2COc3c(ccc(OC)c3OC)C2=O)c([N+](=O)[O-])cc1OC (configuration not stated)	-12.9%[18.4 µM]	-23.6%
CC1(c2nnc(-c3ccncc3)o2)CC(c2cccc(Cl)c2)=NO1 (configuration not stated)	-0.9%	-17.9%

A portion of the library (hit frequency here may not be typical).
